TsaE inh = qHTS Assay for Inhibitors of YjeE; tRNA threonylcarbamoyladenosine biosynthesis protein TsaE (Escherichia coli (strain …; purified YjeE, fluorescence polarisation of a bound ADP probe; Potency, µM; 0.05% of 71,000 active; active = well fitted falling curve; inconclusive = weaker or top-dose-only fall, or a rising curve; inactive = flat or poorly fitted curve;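 further: top concentration of the series not given in the record; excess ADP was the control for the full effect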
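Fluorescence polarization of a BODIPY Texas Red–ADP probe (2 uM) bound to purified YjeE (10 uM) was read after 15 min room-temperature incubation with compounds. Loss of polarization marks inhibitors; ADP serves as titrated control.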
Bst PK mod = Pyruvate Kinase; partly purified Bacillus stearothermophilus pyruvate kinase, luminescence ATP production; ribose 5-phosphate activator present at AC10; Potency, µM; 1.2% of 51,000 active; in the data active means potency below about 11 µM; inconclusive means mostly about 12 µM to 25 µM; inactive means weaker than that;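 the screen sought inhibitors and activators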;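 further: potency means the concentration at half of the fitted maximal effect; scaled between full activation by ribose 5 phosphate and full inhibition by luteolin; about four in five hits inhibit and the cells do not say which; series up to 57 µM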
Starred values were filed as active, the others as inactive; i = inactive; · = not tested or not shown. The list is partial; rates above refer to the full screens.

Values run as follows: TsaE inh | Bst PK mod
c1ccc(-c2n[nH]nc2-c2ccccc2)cc1
    i | >57
COc1ccc(C(=O)NCc2c(CC(C)C)oc(C)c2C(=O)O)cc1
    i | >57
CCC(C)Sc1nc2c(c(=O)n1C)SC(C)C2 (configuration not stated)
    i | ·
Cc1[nH]c(=O)[nH]c(=O)c1S(=O)(=O)N(C)Cc1ccccc1
    i | >57
COC(=O)c1c(NS(C)(=O)=O)sc2c1CCCC2
    i | >57
CCCCC(=O)O[C@]1(C(=O)CO)CC[C@H]2[C@@H]3CCC4=CC(=O)CC[C@]4(C)[C@H]3[C@@H](O)C[C@@]21C
    · | >25.6
CCN(CC)c1ccc(NC(=O)CC2Oc3ccccc3NC2=O)c(C)c1 (configuration not stated)
    i | ·
COCCn1cc(C(=O)NCc2cccs2)c2c3ccccc3n(C)c2c1=O
    i | >57
CCOC(=O)C1CCCN(C(=O)CN2CCN(Cc3ccc(Cl)cc3)C2=O)C1 (configuration not stated)
    i | >57
O=C(C1CCC(Cn2c(=O)[nH]c3ccccc3c2=O)CC1)N1CCN(c2ccccc2)CC1 (configuration not stated)
    i | ·
COc1ccc2oc(-c3ccccc3)c(C(=O)N3CCOCC3)c2c1
    i | ·
O=c1c2ccccc2nc(-c2ccco2)n1/N=C/c1ccco1
    i | >57
COc1cc(C)nc(N2CCCC(C(=O)Nc3cccc(Cl)c3C)C2)n1 (configuration not stated)
    i | >57
Cc1cc(Nc2ccc(Br)cc2F)n2ncnc2n1
    i | ·
CCOC(=O)N1CCN(C(=O)C2CC(=O)N(c3ccc(OC)cc3)C2c2ccc(OC)cc2)CC1 (configuration not stated)
    i | >57
O=C(Nc1ccncc1)C1(c2ccccc2)CCCC1
    i | >57
COc1cccc(N(CC(=O)Nc2cccc(F)c2)S(C)(=O)=O)c1
    i | ·
O=C(Nc1ccc(Cl)c(C(F)(F)F)c1)C1CCCN(S(=O)(=O)c2cnc[nH]2)C1 (configuration not stated)
    i | >57
O=P(O)(CCc1ccncc1)CN1CCCCC1
    i | ·
Cc1cc(C)n(-c2ncnc3sc4c(c23)CCCC4)n1
    i | >57
N#Cc1c(N2CCCC2)nc(N)c2c(N)nc(N3CCCC3)cc12
    i | ·
CCC(C)(C)n1nnnc1C(c1ccc2ncccc2c1)N1CCN(c2nc3ccccc3s2)CC1 (configuration not stated)
    i | >57
CCc1nnc(NC(=O)c2cccc(C(=O)Nc3nnc(CC)s3)n2)s1
    i | >57
Cc1noc(C)c1S(=O)(=O)N(CC(=O)NCc1ccc(Cl)cc1)c1ccc2c(c1)OCO2
    i | ·
COc1ccccc1CN1CCC2(CC1)CCN(C(=O)c1cccn1C)CC2
    i | ·
COC(=O)[C@](C)(N)Cc1ccc(O)cc1
    i | ·
O=C(Nc1ccc(N2CCN(c3ccc(O)cc3)CC2)cc1)Oc1ccccc1
    i | >57
Cc1ccc(CC23CN4CCN(CC(C4)C2O)C3)c(C)c1 (configuration not stated)
    i | >57
CCNC(=O)c1cc2c(=O)n3cccc(C)c3nc2n1C
    i | >57
CN(C)c1ccc(-c2ccc3ncnc(N(C)Cc4ccco4)c3c2)cc1
    i | ·

The list goes on; the last 2 above are carried over.
Values run as follows: TsaE inh | Bst PK mod
CCNC(=O)c1cc2c(=O)n3cccc(C)c3nc2n1C
    i | >57
CN(C)c1ccc(-c2ccc3ncnc(N(C)Cc4ccco4)c3c2)cc1
    i | ·
O=C(C(c1ccccc1)c1ccccc1)N(Cc1ccco1)C1CCS(=O)(=O)C1 (configuration not stated)
    i | >57
CCCn1c(NC(=O)c2ccc(C)cc2)nc2ccccc21
    i | >57
N=c1oc2ccc3ccccc3c2cc1-c1nnc2n1CCCCC2
    i | >57
CCN(CC)c1ccc(C2C(C(=O)OCCOC)=C(C)NC3=C2C(=O)CC(C)(C)C3)cc1 (configuration not stated)
    i | >57
c1ccc(CNc2cc(-c3ccoc3)ncn2)cc1
    i | ·
COc1ccc(Cl)cc1N1C(=O)C2CCCN2C1c1sccc1C (configuration not stated)
    i | >57
CCc1c(C)n([O-])c2c([n+]1=O)CCC2
    i | ·
O=C(N1CCOCC1)N1CCN(c2ccccn2)CC1
    i | >57
Clc1ccc(Cn2c(CN3CCCC3)nc3ccccc32)cc1
    i | >25.6
CCn1c(SCC(=O)Nc2ccc3c(c2)OCO3)nc2c(c1=O)SC(C)C2 (configuration not stated)
    i | ·
COc1ccc(C(=O)Nc2cccc(C(C)=O)c2)cc1S(=O)(=O)N1CCOCC1
    i | ·
CC(C)NC(=O)N1CC[C@@]2(CCCN(C(=O)c3cccn3C)C2)C1
    i | ·
COc1ccc(C(O)C(CN2CCOCC2)c2ccccc2)cc1F (configuration not stated)
    i | >57
COc1ccc(OC)c(NC(=O)C2CCN(c3ncccn3)CC2)c1
    i | >57
CCC(c1nnnn1Cc1ccco1)N(CCN1CCOCC1)Cc1cc2cc(C)ccc2[nH]c1=O (configuration not stated)
    i | >57
CCCCn1ccnc1C(=O)c1ccc(S(=O)(=O)N(CCOC)CCOC)cc1
    i | >57
Cc1ccc(S(=O)(=O)N2CCC(C(=O)N[C@@H](C)C(=O)NCc3ccccc3)CC2)cc1
    i | >57
c1ccc(SCCc2ccncc2)cc1
    i | ·
OC1(c2ccc(Cl)cc2)CCN(Cc2c[nH]c3ccccc23)CC1
    i | ·
CCOC(=O)C1CCN(C/C=C/c2ccccc2OC)CC1
    i | >57
COCCNC(=O)C(C)OC(=O)c1nsc(Cl)c1Cl (configuration not stated)
    i | >57
Cn1c(=O)c(=O)n(C)c2cc(S(=O)(=O)Nc3ccc4c(c3)OCCO4)ccc21
    i | >57
COC(=O)c1sccc1NC(=O)c1ccco1
    i | >57
CCOC(=O)C1CCN(C(=O)COc2ccc(N(C)S(=O)(=O)c3cccs3)cc2)CC1
    i | >57
COc1ccc(-c2csc(N3CCC(C(N)=O)(N4CCCCC4)CC3)n2)cc1
    i | >57
CC(=O)N[C@@H](CC(=O)O)C(=O)N[C@@H](CCC(=O)O)C(=O)O
    i | ·
CNc1ncnc2ccc(-c3ccccc3CN(C)C)cc12
    i | ·
Cc1nn(C)c(C)c1S(=O)(=O)N(CC(=O)Nc1ccc2c(c1)OCO2)c1ccc(C(C)C)cc1
    i | ·
CC(C)Cn1c(N)c(C(=O)COC(=O)C2=COCCO2)c(=O)n(C)c1=O
    i | >57
c1cc(-c2noc(CCC3CCCC3)n2)ccn1
    i | >57
COc1ncc2nc(-c3ccc(F)cc3)c(=O)n(C)c2n1
    i | ·
COC(=O)c1ccc(C(NC(=O)OCc2ccccc2)/C(C)=C/[C@@H](C)C(=O)NCc2cc(F)cc(F)c2)cc1 (some centres not stated)
    i | ·
O=C1c2ccccc2C(=O)N1CCCn1c(=O)oc2ccccc21
    i | >57
O=C(CN1C(=O)COc2ccccc21)N(Cc1cccnc1)Cc1ccccc1F
    i | >57
CC1CCCC(NC2CCCCNC2=O)C1 (configuration not stated)
    i | ·
CN(C)Cc1cc(CCNC(=O)c2ccc(Cl)cc2)ccc1O
    i | >57
O=C(O)CCC(=O)c1ccc[nH]1
    i | ·
COc1cc(C2=NOC(C(=O)NCc3ccc(F)cc3)C2)cc(OC)c1OC (configuration not stated)
    i | >57
Cc1nc(N2CCC3(CC2)OCCO3)c2nnn(Cc3ccccc3F)c2n1
    i | >57
CCN1CCN(c2ncnc3c2sc2nc(N4CCOCC4)c4c(c23)CCC4)CC1
    i | >57
O=C(NCCC1=CCCCC1)C1CCCN(S(=O)(=O)c2ccc(F)cc2)C1 (configuration not stated)
    i | >57
CC(C)NC(=O)c1ccc(CS(=O)(=O)c2ccc(Br)cc2)o1
    i | ·
COC(=O)[C@@]1(Cc2ccccc2)[C@H]2c3cc(C(=O)N(C)C)n(C[C@H](O)CO)c3C[C@H]2CN1C(=O)c1ccccc1
    i | ·
COc1cccc(C2C(C(=O)c3ccco3)=C(O)C(=O)N2CCCN2CCOCC2)c1OC (configuration not stated)
    i | ·
C=CCOC(=O)c1ccccc1C(=O)OCC=C
    i | ·
CCOc1ccc(NC(=O)c2cccnc2C(=O)O)cc1
    i | ·
COCCN(C(=O)C1CC1)c1nnc(-c2cccc(C)c2)s1
    i | >57
CC(=O)n1nc2nc(C)cc(C)c2c1N
    i | >57
COc1ccccc1OCC(=O)NCc1cccs1
    i | >57
CCOC(=O)Cc1csc(SCC(=O)Nc2cccc(C#N)c2)n1
    i | >57
CC(C)Oc1ccc(-c2cc(=O)[nH]c(=O)[nH]2)cc1
    i | ·
Cc1ccc(C(c2nnnn2CCc2ccccc2)N2CCSCC2)cc1 (configuration not stated)
    i | >57
C=CCn1c(COC)nnc1SCC(=O)c1ccc(F)cc1
    i | >57
COc1ccccc1CNC(=O)c1nnc(Cc2ccc(Cl)cc2)o1
    i | ·
COc1cc(CNc2ccc(N3CCOCC3)c(C(=O)O)c2)ccc1OCC(N)=O
    i | >57
N#Cc1ccccc1-c1ccc2ncnc(NCc3cccs3)c2c1
    i | ·
CCOC(=O)C1CCN(C(=O)CSc2n[nH]c(=O)[nH]c2=O)CC1
    i | >57
CC(C)c1ccc(NC(=O)C2CC(=O)N(C(C)C)C2)cc1 (configuration not stated)
    i | >57
O=C(Cn1cc2c(n1)CCCC2)NCc1cccs1
    i | ·
COc1ccc(C(=O)N2CCC[C@@]3(CCN(CC(C)C)C3)C2)cc1
    i | ·

More results
Values run as follows: TsaE inh | Bst PK mod
On1onc2c3cc(-c4ccccc4)nc3ccc21
    i | i
CCCC(=O)Nc1ccc(OCC(=O)OC)cc1
    i | >57
O=c1c2cnn(-c3ccc(F)cc3)c2ncn1Cc1cccnc1
    i | ·
O=C(NC1CCc2ccccc21)C1CCN(S(=O)(=O)c2ccc(-n3cnnn3)cc2)CC1 (configuration not stated)
    i | >57
O=C(Cc1ccccc1)NC(NCCCN1CCOCC1)(C(F)(F)F)C(F)(F)F
    i | >57
COc1ccc(S(=O)(=O)NCCC(=O)NC(C)c2ccccc2)cc1 (configuration not stated)
    i | >57
Cn1c(C(=O)N2CCN(Cc3ccc4c(c3)OCO4)CC2)cc2sccc21
    i | >57
Cc1ccc(CNC(=O)C2CCC(=O)N2C2CCCCC2)cc1 (configuration not stated)
    i | >57
COc1ccc(-c2nnc(SCC(=O)Nc3ccccc3)n2C)cc1
    i | >57
CC1(N2CCOCC2)CC2(O)C(=[N+]1[O-])CCc1c2no[n+]1[O-] (configuration not stated)
    i | ·
COc1ccc2nc(NS(=O)(=O)c3ccc(NC(C)=O)cc3)sc2c1
    i | >57
O=S(=O)(c1ccc(-n2cnnn2)cc1)N(C1CCCCC1)C1CCCCC1
    i | >57
CN(C)c1ccc(C(=O)OCC(=O)NC2CCCCC2)cc1
    i | >57
COC(=O)[C@@]1(Cc2ccc(OC)cc2)[C@H]2c3cc(C(=O)N4CCCC4)n(CCc4ccc(O)c(O)c4)c3C[C@H]2CN1C(=O)c1ccccc1
    i | ·
COc1ccc(N2C(=O)CSC2c2ccc3c(c2)OCO3)cc1 (configuration not stated)
    i | i
O=C(CCNS(=O)(=O)c1cccc2nsnc12)NC1CCCc2ccccc21 (configuration not stated)
    i | i
COc1ccc(-c2ccc(-c3noc(-c4ccccc4F)n3)c(OC)n2)cc1
    i | >57
O=C(c1ccc(CS(=O)(=O)c2ccc(Br)cc2)o1)N1CCCC1
    i | ·
COC(=O)c1cc(-c2ccc(Br)cc2)n[nH]1
    i | i
Cc1ccc2c(c1)C(O)(CC(=O)c1ccc3c(c1)OCO3)C(=O)N2 (configuration not stated)
    i | >57
Cn1c(-c2ccco2)nc2cc3ccccc3cc21
    i | 0.493*
Cc1ccc(NC(=O)Cn2nc(C)cc2C)cc1
    i | >57
CC(C)(C)c1cc(C(=O)N2CCN(c3ncccn3)CC2)ccn1
    i | >57
CCCS(=O)(=O)N1CCC(C(=O)NC2CCCCC2C)CC1 (configuration not stated)
    i | >57
O=C(CSc1nnc(-c2ccco2)n1Cc1ccco1)N1CCOCC1
    i | >57
COc1cccc(-n2cnc3scc(-c4cccs4)c3c2=O)c1
    i | >57
CC1(C)Cc2nc(NCCN3CCOCC3)c(C#N)cc2CO1
    · | >11.4
O=C(c1ccco1)N1CCC[C@@]2(CCN(C(c3ccccc3)c3ccccc3)C2)C1
    i | ·
CCc1nnc(NC(=O)CSc2nnc(-c3ccco3)n2CC)s1
    i | >57
CN1CCN(CCC(=O)Nc2cccc(F)c2)CC1
    i | >57

Shown as a hit in Bst PK mod, among the entries above:
Values run as follows: TsaE inh | Bst PK mod
Cn1c(-c2ccco2)nc2cc3ccccc3cc21
    i | 0.493*

3 compounds already listed, arranged by molecular weight, low to high.
Values run as follows: TsaE inh | Bst PK mod
CC1(C)Cc2nc(NCCN3CCOCC3)c(C#N)cc2CO1
    · | >11.4
O=C(CSc1nnc(-c2ccco2)n1Cc1ccco1)N1CCOCC1
    i | >57
O=S(=O)(c1ccc(-n2cnnn2)cc1)N(C1CCCCC1)C1CCCCC1
    i | >57

(next part)
Values run as follows: TsaE inh | Bst PK mod
O=C(O)c1cccc(C(=O)O)n1
    i | >57
CCn1c(SCC(=O)N2CCN(c3ccccc3F)CC2)nnc1-c1ccoc1C
    i | >57
O=C1c2cccnc2C(=O)N1C1CCCCC1
    i | >57
Cc1ccc(-c2nc3ncccn3c2Nc2ccc3c(c2)OCCO3)o1
    i | >57

Screening data: PubChem, National Center for Advancing Translational Sciences (NCATS)
